High-throughput results (PubChem)
Rhodamine autofl – compound autofluorescence in rhodamine spectral region. Rhodamine-region fluorescence, 547/598 nm, Tris buffer; active compounds read high. max dye-equivalent concentration, M. 0.05% of 59,000 active. AID 594; in the data active means max dye-equivalent concentration above about 11 nM; inconclusive means between about 1.1 nM and that limit
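A six-point rhodamine series on each plate calibrates the signal. Compounds sit in 100 mM Tris (pH 8.0) for 15 min at ambient temperature before imaging through 547 nm/598 nm filters.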
Luciferase inh – firefly luciferase inhibition | purified firefly luciferase, luminescence, 8 min | Potency, µM (top dose mostly 57.1 µM), for the others: top-dose activity change, negative = inhibition, most hits filed as inhibitors | 2.2% of 72,000 active | AID 411; further: potency means the concentration at half of the fitted maximal effect; on the % scale 0 is the no-effect control and ±100 the full control effect; nearly all actives have a fitted effect of over 40% in size
Target sequence (P08659 whole entry, looked up): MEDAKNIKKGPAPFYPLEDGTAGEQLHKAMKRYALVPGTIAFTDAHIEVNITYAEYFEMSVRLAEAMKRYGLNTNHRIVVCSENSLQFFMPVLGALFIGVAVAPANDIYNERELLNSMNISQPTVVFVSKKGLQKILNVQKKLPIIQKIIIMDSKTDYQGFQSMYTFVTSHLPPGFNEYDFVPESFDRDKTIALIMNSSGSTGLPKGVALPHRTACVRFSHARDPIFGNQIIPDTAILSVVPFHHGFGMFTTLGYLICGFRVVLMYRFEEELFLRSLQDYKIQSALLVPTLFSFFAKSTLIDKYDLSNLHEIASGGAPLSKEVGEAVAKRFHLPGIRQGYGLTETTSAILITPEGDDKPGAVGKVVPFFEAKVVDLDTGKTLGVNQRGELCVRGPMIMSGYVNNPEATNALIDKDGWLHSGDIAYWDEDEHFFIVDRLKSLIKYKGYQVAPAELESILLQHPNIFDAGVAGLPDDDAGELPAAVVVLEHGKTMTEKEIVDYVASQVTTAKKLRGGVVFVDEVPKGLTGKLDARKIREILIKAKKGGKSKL
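Substrate buffer containing 10 uM ATP (pH 7.2 imidazole, Mg2+, KCl, detergent, BSA) is dispensed, compound pinned in, then luciferase/luciferin detector mix added. After 8 min at ambient temperature, light output is measured.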
Casp7 inh – blocks human caspase-7 allosterically or competitively. P55210. recombinant caspase-7, Ac-DEVD-AFC fluorescence rate. Potency, µM (top dose mostly 57.5 µM), for inactives: at the highest dose activity change, negative = inhibition, most hits filed as inhibitors. 0.02% of 75,000 active; active means well fitted inhibition curve with a large enough effect in the main read-out, with a control signal flat, not every such curve was filed as active; inconclusive means small, poorly fitted or top-dose-only effect, or a change in a side signal; further: potency means the concentration at half of the fitted maximal effect; % of control where 0% means no effect
Fluorescein autfl – compound fluoresces in the fluorescein spectral region; AID 593; 0.91% of 59,000 active; Compound autofluorescence, 480/540 nm, fluorescein-equivalent; active compounds read high; max fluorescein-equivalent concentration, M; in the data active means max fluorescein-equivalent concentration above about 10 nM; inconclusive means between about 1.1 nM and that limit
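First, buffer (100 mM Tris, pH 8.0) dispensed; second, compounds and fluorescein standards pinned in; third, 15 min room-temperature incubation; finally, imaging at ex 480 nm/em 540 nm. Fluorescence normalized against the six-point fluorescein curve.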
HEK293 cAMP cs – raises cAMP in parental HEK293 cells, TSHR agonist counter-screen; parental HEK293 CNG cAMP sensor, membrane potential fluorescence; Potency, µM (titrated, usually from 57.1 µM), for the others: at the top dose activation, actives largely listed as activators; 2.5% of 73,000 active; AID 938; further: potency means the concentration at half of the fitted maximal effect; % of control where 0% means no effect; nearly all actives have a fitted effect of over 55% in size
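Counterscreen for endogenous-receptor signalling: CNG-channel HEK 293 cells report cAMP rise by membrane depolarization. After 60 min dye equilibration with 100 uM RO 20-1724, compounds incubated 30 min before bottom-read fluorescence at 590 nm.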
TexasRed autofl – compounds fluorescent in Texas Red spectral region. Compound fluorescence, Texas Red channel, 547/618 nm; active compounds read high. max dye-equivalent concentration, M. 0.06% of 59,000 active. AID 587; in the data active means max dye-equivalent concentration above about 10 nM; inconclusive means between about 1.1 nM and that limit
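Compound fluorescence was read after 15 min at room temperature in 100 mM Tris, pH 8.0, using 547 nm excitation and 618 nm emission across a concentration series. It was expressed as Texas Red dye-equivalent concentration from an on-plate standard curve.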
Caspase-1 inhib – blocks human caspase-1 allosterically or competitively. 0.03% of 75,000 active. Caspase-1 enzyme, Ac-WEHD-AFC fluorogenic rate. Potency, µM (titrated, usually from 57.5 µM), for the others: at the highest dose activity change, negative = inhibition, usual class: inhibitors. P29466;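 further: potency means the concentration at half of the fitted maximal effect; plate controls were vehicle for no effect and no substrate for full effect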
Target sequence (P29466 120-297 limits assumed): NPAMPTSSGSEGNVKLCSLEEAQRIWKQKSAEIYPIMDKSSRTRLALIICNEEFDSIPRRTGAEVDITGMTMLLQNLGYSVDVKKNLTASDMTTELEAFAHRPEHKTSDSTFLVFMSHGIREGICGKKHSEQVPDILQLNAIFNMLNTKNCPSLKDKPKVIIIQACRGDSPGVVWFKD
Target sequence (P29466 317-404 limits assumed): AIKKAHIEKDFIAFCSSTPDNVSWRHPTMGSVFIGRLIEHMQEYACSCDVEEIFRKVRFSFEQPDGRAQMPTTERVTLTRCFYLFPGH
ERK AVP inh – blocks ERK signaling stimulated by vasopressin. AID 995. Potency, µM (titrated, usually from 57.5 µM), without a hit: at the highest dose activity, negative = inhibition, most hits filed as inhibitors. 0.99% of 72,000 active. HEK293-V1b, vasopressin-stimulated pERK AlphaScreen; further: potency means the concentration at half of the fitted maximal effect; on the % scale 0 is the no-effect control and ±100 the full control effect; nearly all actives have a fitted effect of over 55% in size
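Phosphorylated ERK1/2 detected via AlphaScreen bead proximity in lysates of V1b-expressing HEK293 cells given 25 nM vasopressin for 5 min after 30 min compound exposure (37 °C). AC50 from Hill equation; basal DMSO 0%, vasopressin 100%.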
USP2a inhib – USP2a (human) protease inhibition; 0.1% of 60,000 active; Potency, µM (titrated, usually from 38.3 µM), for inactives: at the top dose activity change, negative = inhibition, usual class: inhibitors; USP2a enzymatic assay, qHTS inhibition;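 further: potency means the concentration at half of the fitted maximal effect; nearly all actives have a fitted effect of over 60% in size; plate controls were DMSO for no effect and NEM full inhibition control for full effect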
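USP2 core (20nM final) preincubated 30 min RT with compound, then Ub-PLA2 20nM and NBD C6-HPC 20uM final added; buffer 20mM Tris-HCl pH 8.0, 2mM CaCl2. Fluorescence Ex 460/Em 535 read at 0 and 2.5 h; normalized to NEM.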
Tau fil binding – binders of human tau filaments; 2% of 71,000 active; P10636; recombinant tau filaments, thioflavin S fluorescence, 15 h; filaments grown with octadecylsulfate alongside compound; Potency, µM (series often up to 57.1 µM), inactives show top-dose activity change, negative = inhibition;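 further: potency means the concentration at half of the fitted maximal effect; on the % scale 0 is the no-effect control and ±100 the full control effect; actives lower thioflavin S fluorescence by blocking filaments or displacing dye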
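Assay mix: 1 uM His-tagged tau, 30 uM sodium octadecylsulfate, thioflavine S dye in HEPES/NaCl/DTT buffer. Compound is added prior to the inducer. Fluorescence after 15 h at 37 C.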
The depositor's hits bear a star; i = inactive; ? = inconclusive; nt = no result given; [ ] = remark or other dose. Unless noted, the call rests on the fitted dose curve; in most records, active means well fitted curve in the direction sought with a large enough effect; inconclusive means small, poorly fitted or top-dose-only effect, or another doubt; inactive means no such curve, though single readings can be large; an effect the other way counts as inactive or inconclusive. This is a subset; rates above refer to the full screens.

The opening 3 entries (preview)
SMILES	Rhodamine autofl	Luciferase inh	Casp7 inh	Fluorescein autfl	HEK293 cAMP cs	TexasRed autofl	Caspase-1 inhib	ERK AVP inh	USP2a inhib	Tau fil binding
Cc1cc(NC(=O)CN2CC3CC(C2)c2cccc(=O)n2C3)nc2c1c(=O)oc1ccccc12 (configuration not stated)	nt	4%	-11%	nt	-11%	nt	-5%	nt	nt	-22%
c1ccc(-c2noc(CSc3nnc(Cc4cccs4)n3-c3ccccc3)n2)cc1	i	2%	-28%	i	25µM*	i	?	-27%	4%	27%
O=C1C2ON(c3ccc(Cl)cc3)C(c3ccco3)C2C(=O)N1c1ccccc1 (configuration not stated)	i	1%	-1%	i	6%	?	-4%	-4%	-6%	-13%

The whole of this part, previewed entries included:
SMILES	Rhodamine autofl	Luciferase inh	Casp7 inh	Fluorescein autfl	HEK293 cAMP cs	TexasRed autofl	Caspase-1 inhib	ERK AVP inh	USP2a inhib	Tau fil binding
Cc1cc(NC(=O)CN2CC3CC(C2)c2cccc(=O)n2C3)nc2c1c(=O)oc1ccccc12 (configuration not stated)	nt	4%	-11%	nt	-11%	nt	-5%	nt	nt	-22%
c1ccc(-c2noc(CSc3nnc(Cc4cccs4)n3-c3ccccc3)n2)cc1	i	2%	-28%	i	25µM*	i	?	-27%	4%	27%
O=C1C2ON(c3ccc(Cl)cc3)C(c3ccco3)C2C(=O)N1c1ccccc1 (configuration not stated)	i	1%	-1%	i	6%	?	-4%	-4%	-6%	-13%
COc1nc(OC/C(N)=N/O)nc(N2CCOCC2)n1	i	0%	2%	i	-3%	i	-1%	14%	-6%	1%
O=C(NCC1COCCO1)C1CCN(S(=O)(=O)c2ccccc2)CC1 (configuration not stated)	i	-3%	1%	i	11%	i	-2%	3%	nt	-7%
Nc1c(S(=O)(=O)c2ccccc2)c2nc3ccccc3nc2n1/N=C/c1ccco1	nt	nt	?	nt	4%	nt	?	nt	nt	nt
COC(=O)c1sc(=S)n(-c2cc(F)ccc2F)c1N	i	-2%	-1%	i	?	?	1%	3%	5%	-7%
Cc1nc2cc(C(=O)O)ccc2n1-c1ccc(F)cc1F	i	0%	-1%	?	-1%	i	0%	-1%	-9%	-6%
Cc1c(C(=O)O)oc2c3c(ccc12)OCCO3	nt	-2%	-1%	nt	18%	nt	-1%	-22%	-2%	-2%
N=c1n(Cc2ccccc2)c2ccccc2n1CC(O)c1ccco1 (configuration not stated)	i	-5%	-8%	i	6%	i	-3%	-6%	53%[activator]	-17%
COc1ccc(Cl)cc1NS(=O)(=O)c1cc(Cl)ccc1OC	nt	0%	0%	nt	-7%[11.4 µM]	nt	-2%	4%	0%[7.66 µM]	185%[11.4 µM]
O=C1CC(c2ccccc2)CC(O)=C1C=NCC1CCCO1 (configuration not stated)	nt	5%	0%	nt	-1%	nt	-2%	-2%	4%	-1%
C=CCn1c(-c2ccco2)n[nH]c1=S	nt	2%	1%	nt	9%[11.4 µM]	nt	1%	-2%	-5%[7.66 µM]	-3%[11.4 µM]
CCOC(=O)c1[nH]cc(-c2ccccc2)c1N1CCOCC1	i	3%	0%	i	-1%	i	0%	5%	3%	-5%
CC12C=C(/C=C/c3ccc(C(F)(F)F)cc3)C(C)(C1)C(c1ccc(C(F)(F)F)cc1)CC2=O (configuration not stated)	nt	nt	3%[11.5 µM]	nt	0%[11.4 µM]	nt	0%[11.5 µM]	14%[11.5 µM]	nt	nt
Clc1cc(Cl)c2nc(N3CCCCC3)sc2c1	i	-7%	-1%	?	4%	i	0%	15%	-16%	5%
c1ccc(-c2nn3c(Cn4nnc5ccccc54)nnc3s2)cc1	i	-1%	-2%	?	2%	i	-2%	-22%	22%	-6%
CCSc1ccccc1C(=O)Nc1cc(C)on1	i	-1%	2%	?	6%	i	-2%	33%[activator]	-4%	-4%
Clc1ccccc1-c1nn2c(Cn3cnc4ccccc43)nnc2s1	i	0%	-5%	i	27%	i	-2%	-24%	54%[activator]	1%
COC(=O)c1ccccc1NC(=O)Nc1cc(C)cc(C)n1	i	2%	-1%	i	23%	i	0%	-10%	2%	7%

The closing 3 records of the section above come first, to join the parts.
SMILES	Rhodamine autofl	Luciferase inh	Casp7 inh	Fluorescein autfl	HEK293 cAMP cs	TexasRed autofl	Caspase-1 inhib	ERK AVP inh	USP2a inhib	Tau fil binding
CCSc1ccccc1C(=O)Nc1cc(C)on1	i	-1%	2%	?	6%	i	-2%	33%[activator]	-4%	-4%
Clc1ccccc1-c1nn2c(Cn3cnc4ccccc43)nnc2s1	i	0%	-5%	i	27%	i	-2%	-24%	54%[activator]	1%
COC(=O)c1ccccc1NC(=O)Nc1cc(C)cc(C)n1	i	2%	-1%	i	23%	i	0%	-10%	2%	7%
O=C(c1ccco1)N1C(=O)c2cccc3cccc1c23	i	1%	-18%	i	0%	i	?	?	10%	-14%
N#Cc1c(NC(=O)CSCC(=O)O)sc2c1CCCC2	i	-1%	-1%	i	5%	i	-2%	-21%	-9%	11%
Cc1cccc(Cn2c(=O)n(Cc3ccco3)c(=O)c3ccccc32)c1	i	-2%	-2%	i	?	i	-3%	-2%	-3%	23%
O=C1OC(NC(=O)c2ccccc2)C(n2cc(CO)nn2)=C1Cl (configuration not stated)	i	-4%	2%	i	1%	?	1%	-16%	-4%	1%
CCOC(=O)c1sc(=S)n(-c2ccc3c(c2)OCO3)c1N	i	-1%	-3%	i	-17%	i	1%	?	24%	?
S=C(c1ccc(N2CCOCC2)cc1)N1CCOCC1	i	-2%	-1%	i	0%	i	1%	-1%	-6%	6%
Cc1cc(NC(=O)CN2CCN(c3ccccc3F)CC2)nc2c1c(=O)oc1ccccc12	nt	1%	-2%	nt	2%	nt	1%	nt	nt	12%
Cc1nnc(NC(=O)CSc2nc3c(c(=O)n2C)SC(C)C3)s1 (configuration not stated)	nt	2%	1%	nt	-2%	nt	-1%	nt	nt	?
CCCS(=O)(=O)Nc1c(C(=O)O)[nH]c2ccccc12	i	-5%	-3%	i	-2%	?	-1%	12%	-7%	25µM*
CCc1nc(-c2cc3ccc(C)cc3[nH]c2=O)no1	i	-26%	2%	i	13%	i	0%	0%	1%	12%
CCOc1ccc(C(=O)Nc2ccc(NC(=O)c3ccco3)c(Cl)c2)cc1Br	i	-2%	-2%	i	-9%	i	-3%	-19%	2%	i
CCOC(=O)c1c(NC(=O)CSc2ncn[nH]2)sc(C)c1C	i	0%	0%	?	2%	i	0%	-17%	7%	-9%
COc1ccc(Nc2ncnc3c2cnn3-c2ccccc2)cc1OC	nt	2%	-2%	nt	-5%	nt	-2%	nt	nt	74%
N#CC1=C(N)Oc2cc(O)ccc2C1c1ccccc1 (configuration not stated)	nt	1%	-3%	nt	?	nt	-5%	?	1%[7.66 µM]	12%[11.4 µM]
COC(=O)c1cc2occc2n1CC(=O)Nc1ccc(OC)c(OC)c1OC	i	3%	-1%	i	?	i	1%	12%	17%	20%
Cc1ccc(-n2c(=O)cc(N3CC(C)CC(C)C3)[nH]c2=O)cc1 (configuration not stated)	i	1%	-2%	i	21%	i	-2%	-9%	-9%	-14%
CC(C)=CCCC(C)CN1CCC(O)CC1 (configuration not stated)	i	0%	1%	i	6%	i	-1%	5%	0%	-12%
COCCNC(=O)c1c[nH]c2ccc(S(=O)(=O)N3CCC4(CC3)OCCO4)cc2c1=O	i	5%	0%	i	1%	i	0%	12%	21%	5%
CC(=O)NCCNc1ncncc1-c1ccccc1C	i	0%[2.29 µM]	-1%	?	?	i	-1%	7%	-13%	-9%
CC1Cc2nc(SCC(=O)NCc3ccco3)n(Cc3ccccc3)c(=O)c2S1 (configuration not stated)	nt	-3%	-3%	nt	?	nt	-2%	nt	nt	18%

Three compounds out of the list above, sorted by their value in Casp7 inh, low to high:
| compound | Casp7 inh |
| --- | --- |
| CCCS(=O)(=O)Nc1c(C(=O)O)[nH]c2ccccc12 | -3% |
| Cc1ccc(-n2c(=O)cc(N3CC(C)CC(C)C3)[nH]c2=O)cc1 (configuration not stated) | -2% |
| CCc1nc(-c2cc3ccc(C)cc3[nH]c2=O)no1 | 2% |

(continued)
SMILES	Rhodamine autofl	Luciferase inh	Casp7 inh	Fluorescein autfl	HEK293 cAMP cs	TexasRed autofl	Caspase-1 inhib	ERK AVP inh	USP2a inhib	Tau fil binding
O=C(NCCCn1ccnc1)c1cc(C2CC2)on1	nt	0%	-1%	nt	-2%	nt	-2%	-14%	nt	-9%
COc1ccc(-c2cc3ccccc3n2CC(O)CNC(CO)(CO)CO)cc1 (configuration not stated)	i	-1%	2%	i	-3%	i	-1%	-5%	8%	-10%
Cn1nc(-c2ccc(Cl)cc2)c2cc(C(=O)NCCN3CCOCC3)sc21	nt	2%	-1%	nt	7%	nt	0%	-8%	nt	43%
COCCCn1c(Cc2csc(Nc3cccc(Cl)c3)n2)nnc1SCC(=O)OC	i	0%	-4%	i	8%	i	-4%	-9%	194%[activator]	16%
COCCSc1ccccc1C(=O)Nc1nnc(COC)s1	i	1%	0%	?	2%	i	-1%	16%	-6%	0%
Cc1ccc(C(=O)NC2CCCCCC2)cc1N1CCCC1=O	i	1%	1%	i	7%	i	3%	23%	3%	2%
CC(C)C1C2=C(CC(C)(C)CC2=O)ON1c1ccccc1 (configuration not stated)	nt	-8%	-11%	nt	7%	nt	-4%	9%	nt	1%
COc1ccc(OC)c(S(=O)(=O)NCCO)c1	i	-1%	-1%	i	-2%	i	0%	2%	-10%	-2%
Cc1ccccc1NC(=O)CSc1[nH]c(=O)cc(C)c1C#N	nt	2%	-2%	nt	24%	nt	-1%	nt	nt	-4%
Cc1ccc(-n2c(=O)cc(N3CCCCCC3)[nH]c2=O)cc1	nt	0%	2%	nt	-10%	nt	3%	nt	nt	-25%
